Screening data (PubChem)
CtBP-E1A blk: CtBP/E1A binding inhibition; 0.49% of 340,000 active; activity change, % (concentration not given with the values); AlphaScreen GST-E1A/His-CtBP binding, 1536-well; hits give low values; control for the full effect not named in the record; in the data active means activity change below about -65%; inconclusive means about -30% to -65%; inactive means above about -30%; note: % is set by controls: 0 for no effect and ±100 for the full control effect
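Homogeneous bead-based format: GST-tagged E1A captured on glutathione donor beads, His-tagged CtBP on nickel acceptor beads; compounds precede bead addition by 2 h at 37 °C.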
Sfp PPTase inh: blocks B. subtilis Sfp PPTase activity; Q9F4F7; Biochemical Sfp PPTase activity, qHTS; Potency, µM, inactives show max response, negative = inhibition, actives largely listed as inhibitors; 3.5% of 310,000 active; AID 1490; active = well fitted inhibition curve with a large enough effect; inconclusive = small, poorly fitted or top-dose-only effect, or another doubt; inactive = no such curve, though single readings can be large or run the other way;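 note: the enzyme is Sfp with the accession as filed and its product quenches rhodamine fluorescence; potency is the fitted concentration of half-maximal effect; 0% = enzyme reaction without inhibitor and -100% = no enzyme wells; top concentration of the series not given in the record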
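Fluorescence-quenching assay with 15 nM Sfp, 5 uM rhodamine-CoA and 12.5 uM BHQ-2-labelled ybbR peptide in pH 7.6 Hepes/MgCl2 buffer. Enzyme was pre-incubated with compound for 15 min at room temperature. Rate was taken from the 30-min fluorescence change (525/598 nm).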
PINK1 expr mod: PINK1 expression modulation; PINK1 immunofluorescence, high-content cytometry, 24 h; Potency, µM (series often up to 76.6 µM), without a hit: at the highest dose activation (PINK1 increase), hits mostly activators; 0.2% of 410,000 active; AID 624263; active = well fitted activation curve with a large enough effect; inconclusive = small, poorly fitted or top-dose-only effect; inactive = flat fitted curve, though single readings scatter; cell line not stated here;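 note: potency is the fitted concentration of half-maximal effect; % of control where 0% means no effect; nearly all actives have a fitted effect of over 65% in size; a mitochondrial uncoupler was the plate control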
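PINK1 protein level read as immunofluorescence by microplate cytometer in a fixed, stained stable cell line after 24 h exposure to five compound concentrations, with CCCP as control.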
Six1-Eya2 blk: inhibitors of human Six1/Eya2 interaction. Q15475+O00167. AlphaScreen GST-Six1/His-Eya2 binding, biochemical; hits give low values; control for the full effect not named in the record. activity change, % (no concentration beside the values). 0.56% of 360,000 active; in the data active = activity change below about -65%; inconclusive = about -30% to -65%; inactive = above about -30%; note: % is set by controls: 0 for no effect and ±100 for the full control effect; compound concentration not given in the record
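GST-Six1 + His-Eya2 (5X stock: 250/500 nM); Tris pH 8.0, 300 mM NaCl, 0.05% BSA, 0.02% Tween 20; GSH donor/Ni acceptor beads; 1 h 37 °C dark; AlphaScreen readout.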
TRPV1 PAM: enhances activation of the human vanilloid receptor TRPV1 | 0.02% of 320,000 active | TRPV1-expressing cells, Fluo-8 calcium influx, capsaicin EC20 potentiation; host cell line not named in the record; control for the full effect not named in the record | Q8NER1 | potentiation, % at 8.33 µM | AID 540277; active means potentiation above 80%; inconclusive means 30% to 80%; inactive means below 30%; note: 0% is about no effect
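Fluo-8 calcium influx in TRPV1-expressing cells, kinetic read (ex 480/em 520 nm). Compound added and read 3 min for agonist activity, followed by capsaicin at EC20 final and 2 min further read for enhancement.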
D2 agonist: activates the human D2 dopamine receptor; activation, % (no concentration beside the values); P14416; 0.084% of 360,000 active; DiscoveRx PathHunter D2 beta-arrestin, luminescence, 90 min; 100% = 57 uM dopamine signal; in the data active = activation above about 40%; inconclusive = about 15% to 40%; inactive = below about 15%; note: compound concentration not given in the record; the text of the record calls up to 30% inactive
Target sequence (P14416 whole entry, looked up): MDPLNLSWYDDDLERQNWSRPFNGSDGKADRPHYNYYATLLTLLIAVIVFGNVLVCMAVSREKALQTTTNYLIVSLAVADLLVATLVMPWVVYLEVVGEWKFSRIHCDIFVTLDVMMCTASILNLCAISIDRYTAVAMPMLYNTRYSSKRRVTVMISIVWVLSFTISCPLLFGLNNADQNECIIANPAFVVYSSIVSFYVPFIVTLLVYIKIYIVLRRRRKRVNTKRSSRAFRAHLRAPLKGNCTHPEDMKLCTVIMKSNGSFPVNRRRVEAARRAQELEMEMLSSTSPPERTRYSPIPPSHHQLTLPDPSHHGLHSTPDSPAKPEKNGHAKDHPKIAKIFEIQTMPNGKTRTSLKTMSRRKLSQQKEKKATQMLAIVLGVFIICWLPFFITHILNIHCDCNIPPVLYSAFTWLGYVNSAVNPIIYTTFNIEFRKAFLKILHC
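Agonist mode: compounds alone added to overnight-plated D2 PathHunter cells for 90 min at 37 C, with 57 uM final dopamine (EC100) defining full response. Beta-arrestin recruitment detected by chemiluminescent reagent, read after 1 h at ambient temperature.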
D2 potentiator: potentiates the human D2 dopamine receptor allosterically. DiscoveRx D2 beta-arrestin cells, luminescence, 90 min; 100% = 57 uM dopamine signal. potentiation, % (concentration not given with the values). 0.23% of 360,000 active. AID 624464; active = potentiation of 50% or more; inconclusive = 30% to 50%; inactive = 30% or less;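 note: compound concentration not given in the record; tested on top of an EC20 dose of dopamine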
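PathHunter beta-arrestin assay in DiscoveRx D2 cells. Compounds were added with an EC20 of dopamine (50 nM final) for 90 min at 37 deg C. Luminescence was read 1 h after detection reagent, with 57 uM dopamine as the EC100 control.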
Numbers without * were called inactive; & = joins results of further samples.

Results for O=C(NN=C1CCCCCCCCCCC1)c1cccnc1 ?
CtBP-E1A blk: 5.3; Sfp PPTase inh: -25.1%; PINK1 expr mod: 0.1%; Six1-Eya2 blk: -4.1; TRPV1 PAM: 4.5; D2 agonist: 2.3; D2 potentiator: -5.7

Results for O=C(c1cc(-c2cccnc2)nc2ccccc12)N1CCCc2ccccc21 ?
CtBP-E1A blk: -16.0; Sfp PPTase inh: 4.0%; PINK1 expr mod: 1.8%; Six1-Eya2 blk: -4.1; TRPV1 PAM: -1.1; D2 agonist: -1.6; D2 potentiator: -11.6

How did CCOC(=O)c1nc(-c2ccc(OC)c(OC)c2)no1 do in these assays?
CtBP-E1A blk: 7.4; Sfp PPTase inh: 7.2%; PINK1 expr mod: 0.3%; Six1-Eya2 blk: -0.8; TRPV1 PAM: 4.2; D2 agonist: 1.2; D2 potentiator: -2.8

How did CC(NS(=O)(=O)c1ccc2c(c1)OCCCO2)C(=O)O (stereo not given) do in these assays?
CtBP-E1A blk: 14.2; Sfp PPTase inh: -11.1%; PINK1 expr mod: -0.3%; Six1-Eya2 blk: 1.4; TRPV1 PAM: 4.0; D2 agonist: 0.9; D2 potentiator: -3.8

What do the screens show for `O=C(Nc1ccc(S(=O)(=O)N2CCOCC2)cc1)c1ccco1`?
CtBP-E1A blk: 0.1; Sfp PPTase inh: 7.3%; PINK1 expr mod: 0.8%; Six1-Eya2 blk: -0.9; TRPV1 PAM: -8.5; D2 agonist: 0.6; D2 potentiator: -0.7

How did Cn1cccc1CC(=O)N/N=C\c1c2ccccc2cc2ccccc12 do in these assays?
CtBP-E1A blk: -13.3; Sfp PPTase inh: -12.7%; Six1-Eya2 blk: -14.1; TRPV1 PAM: -7.2; D2 agonist: -2.1; D2 potentiator: 9.4

How did CC(=O)C1=C(O)C(=O)N(c2nccs2)C1c1ccccc1 (stereo not given) do in these assays?
CtBP-E1A blk: 9.1; Sfp PPTase inh: -2.1%; PINK1 expr mod: 1.0%; Six1-Eya2 blk: -9.2; TRPV1 PAM: 8.3; D2 agonist: -4.4; D2 potentiator: 9.6

How did CC(=O)Nc1ccc(S(=O)(=O)N(CC(=O)Nc2cc(C)on2)Cc2ccc(F)cc2)cc1 do in these assays?
Sfp PPTase inh: 5.1%; PINK1 expr mod: 1.6%; Six1-Eya2 blk: 2.3; TRPV1 PAM: -5.4; D2 agonist: -4.5; D2 potentiator: -18.8

Results for Cc1ccc(NC(=S)Nc2ccccn2)c(C)c1 ?
CtBP-E1A blk: -3.3; Sfp PPTase inh: -2.2%; PINK1 expr mod: -2.0%; Six1-Eya2 blk: -1.8; TRPV1 PAM: -17.6; D2 agonist: -3.0; D2 potentiator: -7.6

How did O=C(NCc1ccncc1)Nc1ccc2c(c1)OCO2 do in these assays?
CtBP-E1A blk: -1.1; Sfp PPTase inh: -5.6%; PINK1 expr mod: 1.9%; Six1-Eya2 blk: 4.7; TRPV1 PAM: 8.9; D2 agonist: 0.7; D2 potentiator: -4.8

What do the screens show for `O=C1c2cccc3cccc(c23)C(=O)N1CCCCCc1n[nH]c(=S)o1`?
CtBP-E1A blk: -82.2*; Sfp PPTase inh: -9.5%; PINK1 expr mod: 0.5%; Six1-Eya2 blk: -80.1*; TRPV1 PAM: 15.5; D2 agonist: -7.8; D2 potentiator: -15.0

What do the screens show for `COc1ccc(CCNC(=O)Cn2cnc3scc(-c4ccccc4)c3c2=O)cc1OC`?
Sfp PPTase inh: 12.3%; PINK1 expr mod: -0.9%; Six1-Eya2 blk: -8.6; TRPV1 PAM: 19.0; D2 agonist: -2.9; D2 potentiator: -5.7

How did COc1ccc2[nH]c(=O)c3c(c2c1)OC(C)(C)C=C3 do in these assays?
CtBP-E1A blk: 4.8; Sfp PPTase inh: -19.5%&4.6%&-0.7%; PINK1 expr mod: 0.0%; Six1-Eya2 blk: 2.5; TRPV1 PAM: -2.7; D2 agonist: -0.1; D2 potentiator: 1.9

What do the screens show for `CC(NC(=O)C(=O)Nc1nccs1)c1ccccc1` (stereo not given)?
CtBP-E1A blk: 1.9; Sfp PPTase inh: -14.5%; PINK1 expr mod: 1.4%; Six1-Eya2 blk: -3.6; TRPV1 PAM: -8.4; D2 agonist: -6.5; D2 potentiator: -2.4

What do the screens show for `Cc1ccccc1-c1nc(NC(C)C)nc2ccsc12`?
CtBP-E1A blk: 35.3; PINK1 expr mod: 3.8%; Six1-Eya2 blk: 16.8; D2 agonist: 3.9; D2 potentiator: 3.4

Results for Cc1ccc(-c2c3c(=O)n(C)c(=O)n(C)c3cn2Cc2cccnc2)cc1 ?
CtBP-E1A blk: 10.9; Sfp PPTase inh: -12.7%; PINK1 expr mod: -1.8%; Six1-Eya2 blk: 8.2; TRPV1 PAM: -18.9; D2 agonist: -3.6; D2 potentiator: 6.7

Results for O=C(O)c1ccc(/C=N/Nc2ccc(F)cc2F)cc1 ?
CtBP-E1A blk: -0.7; Sfp PPTase inh: 7.1%; PINK1 expr mod: -0.4%; Six1-Eya2 blk: 3.7; TRPV1 PAM: 0.1; D2 agonist: 7.4; D2 potentiator: 5.9

What do the screens show for `Nn1c(SCC(=O)NC2CCCCC2)nnc1-c1ccccc1`?
CtBP-E1A blk: 3.9; Sfp PPTase inh: -7.7%; PINK1 expr mod: -2.8%; Six1-Eya2 blk: 4.7; TRPV1 PAM: 9.9; D2 agonist: -1.6; D2 potentiator: 1.0

Results for Cn1cc([N+](=O)[O-])c(C(=O)Nc2ccc3nc(-c4ccccc4)[nH]c3c2)n1 ?
CtBP-E1A blk: -16.0; Sfp PPTase inh: 11.5%; PINK1 expr mod: -3.2%; Six1-Eya2 blk: -18.4; TRPV1 PAM: -1.8; D2 agonist: 1.0; D2 potentiator: -2.8

Results for O=C(NCC(=O)N1CCC(Cc2ccccc2)CC1)c1ccc(Cl)cc1 ?
CtBP-E1A blk: 3.6; Sfp PPTase inh: 3.3%; PINK1 expr mod: 1.2%; Six1-Eya2 blk: 0.8; TRPV1 PAM: 5.3; D2 agonist: -1.3; D2 potentiator: 7.4

What do the screens show for `CCOc1ccc(S(=O)(=O)NCCC(=O)NCCOc2ccccc2OC)cc1`?
CtBP-E1A blk: -3.3; PINK1 expr mod: 0.5%; Six1-Eya2 blk: -4.8; TRPV1 PAM: -2.8; D2 agonist: -4.4; D2 potentiator: -4.3

Results for CCCn1c(N)c(C(=O)CSc2nc3ncc(Cl)cc3[nH]2)c(=O)n(C)c1=O ?
CtBP-E1A blk: -4.2; PINK1 expr mod: 16.2%; Six1-Eya2 blk: 7.0; TRPV1 PAM: -31.5; D2 agonist: -2.7; D2 potentiator: -3.8

What do the screens show for `CCCCn1c(N)c(N(CC)C(=O)c2cccc(OC)c2)c(=O)[nH]c1=O`?
CtBP-E1A blk: -1.4; Sfp PPTase inh: 17.2%; PINK1 expr mod: -0.7%; Six1-Eya2 blk: 14.6; TRPV1 PAM: 9.6; D2 agonist: 4.5; D2 potentiator: 2.1

What do the screens show for `COc1ccc(C/C(O)=C(\C#N)c2nc3ccccc3s2)cc1`?
CtBP-E1A blk: 2.8; Sfp PPTase inh: 24.3%; PINK1 expr mod: inconclusive; Six1-Eya2 blk: 10.0; TRPV1 PAM: -5.9; D2 agonist: -2.1; D2 potentiator: -10.3

Results for Cc1cccc(OCC(=O)Nc2ccc(S(=O)(=O)N3CCCC3)cc2)c1 ?
CtBP-E1A blk: -6.4; Sfp PPTase inh: inconclusive; PINK1 expr mod: 1.0%; Six1-Eya2 blk: 6.2; TRPV1 PAM: -4.9; D2 agonist: -3.2; D2 potentiator: 0.6

What do the screens show for `COc1ccccc1CN1CCNC(=O)C1CC(=O)N(C)C1CCOCC1` (stereo not given)?
CtBP-E1A blk: 11.5; PINK1 expr mod: 2.8%; Six1-Eya2 blk: 2.0; D2 agonist: 0.2; D2 potentiator: 4.8

How did O=C(CCCCCN1C(=O)c2ccccc2C1=O)Nc1ccc2c(c1)OCCO2 do in these assays?
CtBP-E1A blk: -11.1; Sfp PPTase inh: -4.4%; PINK1 expr mod: -1.8%; Six1-Eya2 blk: -14.8; TRPV1 PAM: 3.6; D2 agonist: -4.2; D2 potentiator: -8.3

Results for COc1cc(NC(=O)CN2CCCCC2C)c(C)cc1[N+](=O)[O-] (stereo not given) ?
CtBP-E1A blk: -15.9; Sfp PPTase inh: -5.5%; PINK1 expr mod: 8.4%; Six1-Eya2 blk: -8.6; TRPV1 PAM: -8.7; D2 agonist: -3.9; D2 potentiator: -24.5

How did CC(C)(C)c1csc(Sc2ccc([N+](=O)[O-])cn2)n1 do in these assays?
CtBP-E1A blk: 6.8; Sfp PPTase inh: 14.5%; PINK1 expr mod: -0.5%; Six1-Eya2 blk: -18.9; TRPV1 PAM: -28.9; D2 agonist: 9.5; D2 potentiator: 19.7

How did COCCCN1C(=O)C(CC(=O)NCc2ccco2)CC(C(=O)N2CCOCC2)=C1C (stereo not given) do in these assays?
CtBP-E1A blk: 0.0; PINK1 expr mod: 0.3%; Six1-Eya2 blk: -3.3; D2 agonist: -6.2; D2 potentiator: -0.6

How did Cc1cc(NC(c2cccnc2)c2ccc3cccnc3c2O)no1 (stereo not given) do in these assays?
CtBP-E1A blk: -93.4*; Sfp PPTase inh: -20.8%; PINK1 expr mod: 1.1%; Six1-Eya2 blk: -87.8*; TRPV1 PAM: -2.0; D2 agonist: 12.4; D2 potentiator: inconclusive

Results for Cc1ccccc1OCC(=O)Nc1nnc(S(=O)(=O)N2CCCC2)s1 ?
CtBP-E1A blk: -0.3; Sfp PPTase inh: 7.3%; PINK1 expr mod: 2.2%&-0.5%; Six1-Eya2 blk: -8.1; TRPV1 PAM: -0.1; D2 agonist: -5.0; D2 potentiator: -5.6

Results for CS(=O)(=O)N1CCC(Oc2ccccc2C(=O)N2CCCCC2CO)CC1 (stereo not given) ?
CtBP-E1A blk: 2.4; Sfp PPTase inh: 19.2%; PINK1 expr mod: -0.6%; Six1-Eya2 blk: 2.6; TRPV1 PAM: 0.5; D2 agonist: 5.3; D2 potentiator: -12.5

What do the screens show for `Cc1nn(-c2ccccc2)c2sc(C(=O)N3CCCCC3)cc12`?
CtBP-E1A blk: -0.7; Sfp PPTase inh: 10.4%; PINK1 expr mod: 6.0%; Six1-Eya2 blk: -3.5; TRPV1 PAM: -8.3; D2 agonist: -2.3; D2 potentiator: -2.9

Results for CCC(CO)Oc1cc(NCc2ccccc2Cl)c2ncn(C(C)C)c2c1 (stereo not given) ?
CtBP-E1A blk: -11.0; PINK1 expr mod: 0.6%; Six1-Eya2 blk: -12.4; TRPV1 PAM: -17.3; D2 agonist: 2.9; D2 potentiator: 0.5
